Compound activity (PubChem)
HIV Env fusion – inhibitors of HIV Env-mediated cell fusion | AID 651610 | 360,000 tested, 1.1% active | inhibition, % at 12.3 µM | HeLa-JRFL Env/CEM21 cell fusion, luciferase;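 active = mean replicate inhibition score of at least 50 and every replicate individually at or above 50; inconclusive = only one of the two criteria met; inactive = mean below 50 and not all replicates reaching 50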;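 note: 0% = plate neutral controls and 100% = maraviroc near 300 nM; one replicate is shown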
MT1-MMP act inh – MT1-MMP (human) activation inhibition; P50281; HT1080 RFP-PRO-GFP cells, GFP/RFP ratio fluorescence, overnight; percent of plate control window, DMSO zero; GFP/RFP ratio change, % at 20 µM; 360,000 tested, 0.061% active; AID 651647;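 active = GFP/RFP ratio change of at least 30% with cell ATP level not reduced by more than half and red fluorescence within 50% of control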; note: strong numbers were not always called active
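Read-out: GFP/RFP fluorescence ratio; Test system: RFP-PRO-GFP reporter HT1080 cells; Compound dosing: single-point 20 µM compound, 1% DMSO; Times: overnight compound exposure at 37 °C.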
PABP polyA inh – blocks human PABP binding to poly(A) RNA; P11940; AID 2014; fluorescence polarization; 290,000 tested, 1% active; inhibition, % at 35 µM;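 active = 50% or more with normal probe brightness, or confirmed in later tests; inconclusive = above 50% with abnormal brightness, or retests that disagree; inactive = below 50% or failed in later tests; about a fifth of its hits are not listed in these tables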;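 note: calls also rest on retests at 20 µM and on dose response follow-up; controls were probe without protein and protein plus probe with vehicle; some compounds called inactive have numbers as strong as hits; many hits fall short of the cut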
Rce1 inhib – inhibitors of yeast Ras-converting enzyme | AID 2563 | yeast membranes, quenched prenylated peptide cleavage fluorescence | 290,000 tested, 0.27% active | Q03530 | calls only;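 active = fall in fluorescence gain of 50% or more versus controls, with final raw signal at or below 3038400; inconclusive = same 50% fall but final raw signal above 3038400; inactive = fall in fluorescence gain under 50%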;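 note: plate controls were neutral control wells for no effect and wells lacking membranes for full effect; tested at 10 µM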
Target sequence (Q03530 whole entry, looked up): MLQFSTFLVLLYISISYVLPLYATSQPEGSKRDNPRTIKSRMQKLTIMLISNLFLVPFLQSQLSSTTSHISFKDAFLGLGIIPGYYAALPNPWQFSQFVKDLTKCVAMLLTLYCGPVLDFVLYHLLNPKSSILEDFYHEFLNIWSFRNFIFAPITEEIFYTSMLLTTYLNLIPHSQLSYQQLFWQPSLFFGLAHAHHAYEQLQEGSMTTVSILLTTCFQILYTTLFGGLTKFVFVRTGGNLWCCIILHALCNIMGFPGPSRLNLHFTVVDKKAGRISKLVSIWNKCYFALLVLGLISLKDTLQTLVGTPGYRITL
UUG fidelity – modulators of start codon recognition fidelity in yeast; activity score, % at 18.7 µM; 350,000 tested, 0.13% active; S. cerevisiae UUG-firefly luciferase reporter, luminescence/redox ratio;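 active = replicate mean at a twofold rise or more, about +100% in these data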;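 note: firefly luciferase made from a UUG start codon reports start codon fidelity; reporter light over untreated wells divided by growth signal over untreated wells; some hits fall short of that in this replicate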
CSC inhib – blocks cancer stem cells; inhibition, % at 7.5 µM; AID 2717; 300,000 tested, 1.1% active; cancer stem cell-like cells viability, luminescence;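 active = mean at 75% or more and at least half the replicates too; inconclusive = mean and replicates disagree; tested in HMLE shEcad cells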;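 note: 0% = median of negative and 100% = median of positive control wells; the first replicate is given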
eIF4H inh – inhibitors of RNA binding by human eIF4H. Q15056. eIF4H fluorescence polarization binding assay. inhibition, % at 35 µM. 290,000 tested, 0.94% active;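 active = 50% or more with normal probe brightness, or confirmed in later tests; inconclusive = above 50% with abnormal brightness, or retests that disagree; inactive = below 50% or failed in later tests; about a fifth of its hits are not listed in these tables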;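 note: calls also rest on retests at 20 µM and on dose response follow-up; 0% = protein and probe with vehicle and 100% = probe without protein; strong numbers were not always called active; many hits fall short of the cut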
MT1-MMP act inh RFP – recorded beside MT1-MMP act inh, whose call it bears; RFP signal change, %; measured here: RFP expression control read;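 0 = vehicle wells; hits needed this value within 50% of zero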
The depositor's hits bear a star; i = inactive; ? = inconclusive; · = not tested or not shown. Compounds were not picked by outcome. Share with any hit: about 3%.

smiles | CSC inhib | Rce1 inhib | HIV Env fusion | MT1-MMP act inh RFP | eIF4H inh | MT1-MMP act inh | UUG fidelity | PABP polyA inh
CC(C)[C@H](NC(=O)OCc1ccccc1)C(=O)OCC(=O)N1CCN(c2ccc(F)cc2)CC1 | -11 | · | · | -2 | · | 5 | 8 | ·
O=C(COc1ccc(S(=O)(=O)N2CCCC2)cc1)NCc1ccccn1 | -25 | · | 8 | 0 | -9 | -1 | -1 | -7
CCN(CC(=O)Nc1c(F)cccc1F)C(=O)CSc1nc(C)cc(C)n1 | · | i | 0 | 5 | -8 | -3 | -18 | 4
Cc1noc(C)c1S(=O)(=O)N1CCC(C(N)=O)CC1 | -9 | i | 2 | 4 | -5 | -2 | -7 | -3
Cc1ccc(NC(=O)COC(=O)CC2CC3CCC2C3)cc1S(=O)(=O)N1CCOCC1 (stereo unspecified) | · | · | -4 | -6 | · | -1 | -3 | ·
CC(NC(=O)c1sc2cc([N+](=O)[O-])ccc2c1Cl)C(C)(C)C (stereo unspecified) | 4 | i | 15 | -1 | 14 | 2 | -21 | 14
CC(Cl)C(=O)NNc1cccc(Cl)n1 (stereo unspecified) | -4 | i | · | 0 | -8 | -1 | 0 | 23
CC(C)(C)C(=O)NC1CCN(C(=O)N2CCCC2)CC1 | 1 | i | -26 | -6 | 13 | -1 | -15 | 7
COc1ccc(C(=O)CN2CCN(S(=O)(=O)c3cccc([N+](=O)[O-])c3)CC2)cc1 | -11 | · | 13 | 4 | 2 | -1 | · | 13
CCOc1ccc2[nH]c(C)c(CN3CCN(C)CC3)c(=O)c2c1 | -5 | i | -33 | 2 | 7 | 2 | -12 | -9
Cc1ccc(/C=C/C(=O)OCc2nc(N)nc(Nc3ccccc3C)n2)o1 | 15 | i | 8 | -2 | -1 | 0 | · | 0
COc1ccc(C2C(C(=O)c3sc(C)nc3C)=C(O)C(=O)N2CCCn2ccnc2)cc1OC (stereo unspecified) | -30 | · | -2 | -2 | -10 | -4 | -3 | 3

smiles | CSC inhib | Rce1 inhib | HIV Env fusion | MT1-MMP act inh RFP | eIF4H inh | MT1-MMP act inh | UUG fidelity | PABP polyA inh
O=C(Nc1nc2c(Cl)ccc(Cl)c2s1)C1CC1 | 17 | i | 0 | -9 | 1 | -13 | -5 | -2
COC(=O)c1c(SCC(=O)NC2CCCCC2)[nH]c2ccccc2c1=O | -9 | i | -3 | 45 | 16 | 24 | -19 | 42
CCn1c(C)cc(/C=C2/NC(=O)N(Cc3ccccc3F)C2=O)c1C | -2 | · | -3 | 1 | 16 | -7 | · | 2
Cc1nn(-c2ccccc2)c(Cl)c1C(=O)N1CCN(C)CC1 | -3 | i | 8 | -1 | -7 | 0 | -16 | -8
Cc1ccc(S(=O)(=O)Nc2nonc2C)cc1 | 1 | i | -13 | 2 | 1 | 4 | -19 | 1
CC1CCCC(C)N1C(=S)SCC(=O)O (stereo unspecified) | · | i | -30 | 5 | -11 | -1 | · | 5
CC(c1ccc(F)cc1)n1cc(S(=O)(=O)N2CCCC2)ccc1=O (stereo unspecified) | -18 | · | · | -1 | · | -5 | -8 | ·
Cc1noc(C)c1CSCC(=O)Nc1nc2c(F)cc(F)cc2s1 | -1 | · | · | 5 | · | -7 | -6 | ·
CO/N=C(/CS(=O)(=O)c1ccc(C)cc1)c1ccc(OC)cc1 | -1 | i | · | 0 | -9 | 2 | -14 | 3
CCOC(=O)N1CCN(Cc2nc3ccc([N+](=O)[O-])cc3c(=O)n2-c2cccc(OC)c2)CC1 | -14 | i | 10 | 2 | 5 | -3 | 5 | 14
Cc1ccc2cc3cc(C(=O)NCCCN4CCCC4)oc3nc2c1 | -17 | ? | -14 | -3 | -14 | 5 | -7 | 0
CSc1ccc(S(=O)(=O)N2CCC(C(=O)NCCN3CCOCC3)CC2)cc1 | -2 | i | -2 | 5 | -11 | 4 | -11 | -8

Ordered by value in HIV Env fusion (descending): four of the compounds above
molecule	Rce1 inhib	HIV Env fusion	MT1-MMP act inh RFP	MT1-MMP act inh	UUG fidelity
CCOC(=O)N1CCN(Cc2nc3ccc([N+](=O)[O-])cc3c(=O)n2-c2cccc(OC)c2)CC1	i	10	2	-3	5
Cc1nn(-c2ccccc2)c(Cl)c1C(=O)N1CCN(C)CC1	i	8	-1	0	-16
CCn1c(C)cc(/C=C2/NC(=O)N(Cc3ccccc3F)C2=O)c1C	·	-3	1	-7	·
Cc1ccc2cc3cc(C(=O)NCCCN4CCCC4)oc3nc2c1	?	-14	-3	5	-7

Part of the list above, reduced to MT1-MMP act inh, CSC inhib and Rce1 inhib.
mol	MT1-MMP act inh	CSC inhib	Rce1 inhib
Cc1ccc(/C=C/C(=O)OCc2nc(N)nc(Nc3ccccc3C)n2)o1	0	15	i
COc1ccc(C2C(C(=O)c3sc(C)nc3C)=C(O)C(=O)N2CCCn2ccnc2)cc1OC (stereo unspecified)	-4	-30	·
O=C(Nc1nc2c(Cl)ccc(Cl)c2s1)C1CC1	-13	17	i

Continuation.
smiles | CSC inhib | Rce1 inhib | HIV Env fusion | MT1-MMP act inh RFP | eIF4H inh | MT1-MMP act inh | UUG fidelity | PABP polyA inh
Nc1nnc(CC(=O)N/N=C/c2ccc([N+](=O)[O-])cc2)s1 | 0 | i | 23 | 2 | -3 | 2 | -12 | 2
Cc1cccc(C)c1NC(=S)N/N=C/c1ccc(C(=O)O)cc1 | 10 | i | 7 | 3 | 3 | 1 | -15 | -10
Cc1ccccc1OCC(=O)Nc1sc(C(=O)Nc2cccc(C)c2C)c(C)c1C#N | -3 | i | · | -3 | -12 | -3 | -42 | -8
CC1(C(=O)NS(=O)(=O)c2cccc(Cl)c2)CCN1C(=O)C1CCCCC1 (stereo unspecified) | · | · | -15 | 8 | · | -6 | -9 | ·
COc1cc(C(O)c2nc(/C=C/c3ccccc3)cs2)ccc1F (stereo unspecified) | · | · | 23 | -13 | · | 4 | -4 | ·
Cc1sc2nc(CSc3n[nH]c(N)n3)[nH]c(=O)c2c1C | -13 | i | 6 | 4 | -8 | 3 | -5 | 8
COC(=O)C(O)(CC(=O)Nc1cccc(SC)c1)C(F)(F)F (stereo unspecified) | -5 | i | -23 | 7 | 4 | -4 | 3 | -2
CCS(=O)(=O)N1CCCC(C(=O)N2CCc3ccccc3C2)C1 (stereo unspecified) | 7 | i | · | 3 | -2 | 2 | · | -2
CN1CCN(S(=O)(=O)c2ccc3c(c2)NC(=O)C2CCCN32)CC1 (stereo unspecified) | -8 | i | -57 | 3 | 1 | 0 | 12 | 5
CC(CO)NCC12CC3CC(CC(C3)C1)C2 (stereo unspecified) | · | i | 8 | 5 | -8 | -1 | · | 4
Cc1cc(C(=O)OCC(=O)N2CC(=O)Nc3ccccc32)c(C)n1-c1ccc(F)cc1 | -3 | i | -1 | -8 | 12 | -2 | -20 | 0
NCCCC[C@@H](C(=O)NCCCCCCCCCCC(=O)N1CCNCC1)n1cc(CCO)nn1 | -9 | i | -20 | -6 | · | 0 | -6 | ·

One compound at a time, from the list above. Order of screens: CSC inhib | Rce1 inhib | HIV Env fusion | MT1-MMP act inh RFP | eIF4H inh | MT1-MMP act inh | UUG fidelity | PABP polyA inh
`O=C(Nc1nc2c(Cl)ccc(Cl)c2s1)C1CC1` reads 17 | i | 0 | -9 | 1 | -13 | -5 | -2
`CCN(CC(=O)Nc1c(F)cccc1F)C(=O)CSc1nc(C)cc(C)n1` reads · | i | 0 | 5 | -8 | -3 | -18 | 4

Next section:
smiles | CSC inhib | Rce1 inhib | HIV Env fusion | MT1-MMP act inh RFP | eIF4H inh | MT1-MMP act inh | UUG fidelity | PABP polyA inh
CC[C@]12c3[nH]c4ccc(OC)cc4c3CCN1C(=O)C(CC(=O)NCC13CC4CC(CC(C4)C1)C3)C[C@@H]2C(=O)N1CCN(C(=O)C2CC2)CC1 (stereo partly specified) | · | · | 70* | -6 | · | -2 | -3 | ·
O=C(NCc1ccco1)c1ccccc1-c1nc(-c2ccc(F)cc2)no1 | -2 | i | 11 | 3 | 0 | -2 | · | 0
CC(C)(O)C#Cc1ccc(C(=O)N2CCN(C(=O)c3ccco3)CC2)cc1 | -8 | i | -17 | -2 | 2 | 0 | -2 | -6
O=C(CCC(=O)N(CC(=O)NC1CCCC1)C1CCCCC1)Nc1ccccn1 | -12 | i | 18 | 3 | -3 | 5 | · | 5
CCOC(=O)C1=C(CSc2n[nH]c(N)n2)NC(=O)NC1C (stereo unspecified) | -9 | i | -102 | 2 | 3 | 3 | -12 | 4
Cc1ccc(S(=O)(=O)NCC(=O)NCCc2c[nH]c3ccccc23)cc1C | -4 | i | 29 | -1 | -8 | 4 | 2 | 0
Cc1cc(NC(=O)CCC2COc3ccccc3O2)no1 (stereo unspecified) | 3 | i | · | 4 | -7 | 5 | 0 | -1
COc1ccc(CCN2CC(C(=O)N3CCN(C(C)=O)CC3)CCC2=O)cc1 (stereo unspecified) | -9 | i | -18 | 4 | -8 | 0 | -29 | -14
CCOC(=O)C1=CN(Cc2cccc(-c3cccnc3)c2)S(=O)(=O)N(C)C1C (stereo unspecified) | · | · | 36 | -6 | · | -5 | 1 | ·
Cc1cc(=O)oc(C)c1C(=O)NCC1CCCO1 (stereo unspecified) | -12 | i | -36 | 0 | -9 | 3 | 6 | 3
Cc1ccc(S[C@@H](CCN2CC[C@H](NC(=O)OCc3ccccc3)CCC2=O)c2ccccc2)cc1 | 42 | i | 22 | -7 | -2 | 3 | 4 | 12
COc1ccc(C(=O)N2CCCCCC2)cc1S(=O)(=O)N1CCOCC1 | -5 | i | 2 | 4 | -3 | -5 | -14 | 3

smiles | CSC inhib | Rce1 inhib | HIV Env fusion | MT1-MMP act inh RFP | eIF4H inh | MT1-MMP act inh | UUG fidelity | PABP polyA inh
Cc1ccc(OCC(=O)N2CCN(C(=O)c3ccco3)CC2)cc1 | -13 | i | 8 | 3 | -2 | 1 | · | -9
CCN(CC)S(=O)(=O)c1ccc(N2CCCC2)c(NS(=O)(=O)c2ccc(OC)cc2)c1 | -5 | i | 1 | 1 | 4 | 1 | -9 | 6
CCOC(=O)c1cccnc1SCC(=O)NC(C)CC (stereo unspecified) | 3 | i | -15 | 1 | -4 | 4 | -6 | -15
C#CCOCCOCCOCCNc1nc(N2CCN(C(=O)[C@H]([C@@H](C)CC)n3cc([C@@H](N)CO)nn3)CC2)nc(N2CCN(C(=O)[C@H](CCCCN)n3cc([C@@H](N)CC(C)C)nn3)CC2)n1 | -7 | i | 1 | · | 31 | · | · | 47
FC(F)(F)c1cccc(Cn2nnnc2-c2cccc(C(F)(F)F)c2)c1 | -8 | i | 11 | -8 | -7 | 3 | 4 | -2
CC(C)(C)c1nnc2sc(SCCN3C(=O)c4ccccc4C3=O)nn2c1=O | · | i | 19 | -2 | -5 | 2 | -6 | 0
CC1(C)CC(=O)C=C(/C=C/c2ccccc2)C1 | 4 | · | 4 | -5 | · | -9 | -12 | ·
COc1ccc(C)cc1NC(=O)CSc1cccc[n+]1[O-] | -18 | · | · | 2 | · | 3 | -13 | ·
COc1cc(OC)cc(C(=O)NCC2CCCN(C(=O)c3oc(C)cc3C)C2)c1 (stereo unspecified) | -6 | i | -22 | 1 | 0 | -2 | 13 | 10
COc1ccc(/C=N/NC(=O)CC(=O)NCc2cccnc2)c(OC)c1 | -8 | i | 14 | 2 | 2 | 3 | · | 2
COc1cc(NC(=O)CN(C)S(=O)(=O)c2ccc(-c3ccc(=O)[nH]n3)s2)cc(OC)c1 | -6 | i | 7 | 2 | 3 | -2 | -13 | -2

Records listed above shown as hits in HIV Env fusion:
structure | Rce1 inhib | HIV Env fusion | MT1-MMP act inh RFP | MT1-MMP act inh | UUG fidelity
CC[C@]12c3[nH]c4ccc(OC)cc4c3CCN1C(=O)C(CC(=O)NCC13CC4CC(CC(C4)C1)C3)C[C@@H]2C(=O)N1CCN(C(=O)C2CC2)CC1 (stereo partly specified) | · | 70* | -6 | -2 | -3
